# AF4-AF9 inh: inhibitors of AF4 peptide binding to AF9, primary screen, biochemical, AlphaScreen, biotin-AF4 peptide, FLAG-AF9, single point; Protein AF-9 (Homo sapiens), P42568; inhibition, % at 10 µM; 0.47% of 350,000 active;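 active = every replicate reaching a set inhibition limit, whatever the replicate mean, cut at about 25% in these data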;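 note: 0% = plate neutral control median and 100% = total signal loss; the record names both 10 and 1 µM as test concentration; the first replicate is given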
# Target sequence (P42568 whole entry, looked up): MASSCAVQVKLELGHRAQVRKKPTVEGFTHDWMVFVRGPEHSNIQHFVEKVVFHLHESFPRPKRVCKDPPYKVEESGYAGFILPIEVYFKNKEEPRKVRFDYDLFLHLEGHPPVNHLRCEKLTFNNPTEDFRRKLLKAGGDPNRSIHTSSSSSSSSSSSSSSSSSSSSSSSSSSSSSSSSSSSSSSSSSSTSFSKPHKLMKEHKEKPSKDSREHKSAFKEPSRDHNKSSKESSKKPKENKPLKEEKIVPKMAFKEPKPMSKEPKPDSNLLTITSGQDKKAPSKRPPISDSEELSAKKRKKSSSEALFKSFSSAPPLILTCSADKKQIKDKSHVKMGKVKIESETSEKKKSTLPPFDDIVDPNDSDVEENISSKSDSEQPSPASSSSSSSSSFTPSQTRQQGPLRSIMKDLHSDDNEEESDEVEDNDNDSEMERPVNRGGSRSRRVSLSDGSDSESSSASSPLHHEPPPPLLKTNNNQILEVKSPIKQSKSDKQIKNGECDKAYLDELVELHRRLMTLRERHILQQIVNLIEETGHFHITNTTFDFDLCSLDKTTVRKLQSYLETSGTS
# FGF22 binding: binders of human FGF22 protein, primary screen, FGF22 synaptogenesis inhibitor project, biophysical, thermal shift, single point. recombinant FGF22 thermal shift, SYPRO orange fluorescence; percent of sucrose octasulfate shift, DMSO zero. Fibroblast growth factor 22 (Homo sapiens), Q9HCT0. AID 651658, 2012. calls only at 9.99 µM. 1.5% of 340,000 active;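 active = melting point raised past a set limit in the mean and every replicate; three in four hits are not shown here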
# Target sequence (Q9HCT0 whole entry, looked up): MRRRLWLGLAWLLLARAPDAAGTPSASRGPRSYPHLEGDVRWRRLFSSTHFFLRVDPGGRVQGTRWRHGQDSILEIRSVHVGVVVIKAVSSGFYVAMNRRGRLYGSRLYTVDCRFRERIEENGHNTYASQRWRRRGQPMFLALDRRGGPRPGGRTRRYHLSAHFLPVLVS
# * = called active by the depositor; i = inactive; + = active, no number. Not all compounds are listed, so the mix of outcomes need not match the whole.
SMILES	AF4-AF9 inh	FGF22 binding
CCCC#Cc1ccc2c(c1)O[C@H](CN(C)Cc1ccccn1)[C@H](C)CN([C@@H](C)CO)S2(=O)=O	-0.5	i
C[C@H](CO)N1C[C@H](C)[C@H](CN(C)S(C)(=O)=O)Oc2ncc(-c3ccccc3)cc2C1=O	-1.8	i
Cc1noc(C)c1NC(=O)N(C)C[C@@H]1Oc2ccc(NC(=O)Nc3ccc(C(F)(F)F)cc3)cc2CC(=O)N([C@H](C)CO)C[C@@H]1C	0.1	i
O=C(C[C@H]1C=C[C@H](NC(=O)C2CC2)[C@H](CO)O1)NCC1CC1	-0.7	i
C[C@H]1CCCCO[C@@H](CN(C)C(=O)C2CCCCC2)[C@@H](C)CN([C@@H](C)CO)C(=O)c2cc(NS(C)(=O)=O)ccc2O1	-0.8	i
Cc1noc(C)c1S(=O)(=O)Nc1ccc2c(c1)C(=O)N([C@H](C)CO)C[C@H](C)[C@H](CN(C)C(=O)NC1CCCCC1)OCCCC[C@H](C)O2	0.8	i
CC(C)NC(=O)Nc1ccc2c(c1)C(=O)N([C@H](C)CO)C[C@H](C)[C@@H](CN(C)S(=O)(=O)c1ccc(F)cc1)OCCCC[C@@H](C)O2	-2.8	i
C[C@@H]1CN([C@H](C)CO)C(=O)c2cc(NC(=O)NC3CCCCC3)ccc2O[C@@H](C)CCCCO[C@H]1CN(C)Cc1ccccc1	3.1	i
Cc1noc(C)c1S(=O)(=O)Nc1ccc2c(c1)C(=O)N([C@@H](C)CO)C[C@@H](C)[C@H](CN(C)S(=O)(=O)c1c(C)noc1C)OCCCC[C@@H](C)O2	-7.2	i
N#C[C@@H]1[C@@H](c2ccc(C#Cc3cccc(F)c3)cc2)[C@@H](CO)N1C(=O)C1CCC1	-5.2	i
Cc1ccc(S(=O)(=O)Nc2ccc3c(c2)C(=O)N([C@H](C)CO)C[C@H](C)[C@H](CN(C)S(=O)(=O)c2cccs2)OCCCC[C@H](C)O3)cc1	1.8	i
COc1ccc(COCC23N=C4SCC(=O)N4[C@H](c4ccccc4O2)[C@H]3COC(=O)c2ccccc2)cc1	-0.5	i
Cc1ccc(S(=O)(=O)N(C)C[C@@H]2Oc3c(NC(=O)c4cc(C)nn4C)cccc3C(=O)N([C@H](C)CO)C[C@H]2C)cc1	-14	i
CC12C=CC(C)(C3C(=O)NC(=O)C31)C1C3C(=O)NC(=O)C3C12 (stereo not given)	-1.4	i
Cc1noc(C)c1NC(=O)N(C)C[C@H]1Oc2ccc(NC(=O)NC3CCCCC3)cc2CC(=O)N([C@H](C)CO)C[C@H]1C	-2.1	i

SMILES	AF4-AF9 inh	FGF22 binding
O=C(C[C@@H]1CC[C@@H]2[C@H](COC[C@H](O)CN2C(=O)C2CCOCC2)O1)NCc1ccncc1	-1.8	i
CS(=O)(=O)Nc1ccc2c(c1)[C@H]1C[C@H](CC(=O)NCc3ccncc3)O[C@H](CO)[C@H]1O2	0.4	i
O=C(NC1Cc2ccccc2C1)[C@H]1N[C@H]2c3cccc(=O)n3C[C@H]2[C@@H]1CO	3.8	i
O=C(C[C@H]1C[C@H]2c3cc(NC(=O)c4ccc5c(c4)OCO5)ccc3O[C@H]2[C@@H](CO)O1)NCc1ccc(Cl)cc1	-0.2	i
O=C(C1CCCC1)N1[C@@H]2CN(S(=O)(=O)c3ccccc3)c3ccccc3[C@@H]2[C@@H]1CO	0.9	i
CO[C@@H]1CN(C)C(=O)c2cc(NC(=O)C3CCC3)ccc2OC[C@H](C)NC[C@H]1C	0.1	i
C[C@H]1CN([C@@H](C)CO)C(=O)c2cc(C#CC3CCCCC3)cnc2O[C@H]1CN(C)S(C)(=O)=O	-1.4	i
COCC(=O)Nc1ccc2c(c1)OC[C@@H](C)N(Cc1ccncc1)C[C@@H](C)[C@@H](OC)CN(C)C2=O	-2.0	i
CCC(=O)N1[C@@H](CO)[C@H](c2ccccc2)[C@@H]1CNC(=O)CN1CCOCC1	-2.9	i
C[C@@H]1CN([C@@H](C)CO)C(=O)c2cc(C#Cc3cccc(F)c3)cnc2O[C@H]1CN(C)C(=O)C1CC1	-0.3	i
Cc1noc(C)c1S(=O)(=O)Nc1ccc2c(c1)C(=O)N([C@H](C)CO)C[C@@H](C)[C@@H](CN(C)S(=O)(=O)c1ccc(Cl)cc1)O2	-15	i
O=C(C[C@@H]1CC[C@H]2[C@@H](COC[C@H](O)CN2C(=O)c2cccnc2)O1)NCc1ccc(-c2ccccc2)cc1	-3.3	i
CCCN1[C@H](C(=O)N[C@H](C)c2ccccc2)[C@@H](CO)[C@@H]2Cn3c(ccc(-c4ccc(F)cc4)c3=O)[C@@H]21	6.5	i
N#C[C@@H]1[C@H](c2ccccc2-c2cccc(F)c2)[C@H](CO)N1C(=O)C1CCCCC1	1.5	i
CCCNC(=O)N[C@@H]1CC[C@@H](CC(=O)NC2CCC2)O[C@@H]1CO	1.4	i

SMILES	AF4-AF9 inh	FGF22 binding
CCCC(=O)Nc1ccc2c(c1)C(=O)N(C)C[C@H](OC)[C@H](C)CN(C(C)=O)[C@@H](C)CO2	-0.7	i
COCC(=O)Nc1ccc2c(c1)[C@H]1C[C@H](CC(=O)NCc3ccccc3OC)O[C@@H](CO)[C@H]1O2	-0.2	i
CO[C@@H]1CN(C)C(=O)c2ccc(NC(=O)C3CC3)cc2OC[C@H](C)N(Cc2nccs2)C[C@H]1C	-0.8	i
O=C(Nc1cc(Cl)cc(Cl)c1)N[C@H]1CC[C@@H](CCNS(=O)(=O)c2cccc(F)c2)O[C@H]1CO	0.0	i
CCC(=O)N(C)C[C@H]1Oc2ncc(C#Cc3ccc(OC)cc3)cc2C(=O)N([C@@H](C)CO)C[C@H]1C	0.8	i
COc1ccc(NC(=O)N(C)C[C@@H]2OCCCC[C@@H](C)Oc3ccc(NS(=O)(=O)c4cccs4)cc3C(=O)N([C@@H](C)CO)C[C@H]2C)cc1	-12	i
CS(=O)(=O)Nc1ccc2c(c1)[C@H]1C[C@@H](CC(=O)NCc3cc(F)ccc3F)O[C@@H](CO)[C@H]1O2	2.0	i
CCNC(=O)C[C@@H]1CC[C@H]2[C@H](COc3ccc(NC(=O)Nc4ccccc4C)cc3C(=O)N2C)O1	0.8	i
CCCNC(=O)C[C@@H]1C[C@H]2c3cc(N(C)C)ccc3O[C@H]2[C@@H](CO)O1	-3.6	i
COc1ccc2c3c([nH]c2c1)[C@H](CO)N(C(=O)CN(C)C)CC31CCN(Cc2ccccc2)CC1	5.7	i
COc1ccc(NC(=O)Nc2ccc3c(c2)C(=O)N([C@H](C)CO)C[C@H](C)[C@@H](CN(C)Cc2ccccc2)OCCCC[C@H](C)O3)cc1	7.6	i
COc1ccc2c3c([nH]c2c1)[C@H](CO)N(C(=O)Cc1ccccn1)CC31CCN(Cc2ccccn2)CC1	6.2	i
C[C@@H]1CCCCO[C@H](CN(C)C(=O)Cc2ccccc2)[C@@H](C)CN([C@@H](C)CO)C(=O)c2cc(NS(=O)(=O)c3ccc(Cl)cc3)ccc2O1	-7.1	i
COc1ccc(NC(=O)Nc2ccc3c(c2)CC(=O)N([C@@H](C)CO)C[C@@H](C)[C@@H](CN(C)S(=O)(=O)c2cccs2)O3)cc1	1.5	i
S=C1NC[C@H](Cc2ccccc2)N1CC1CCN(CCCC2CCCCC2)CC1	15	i

SMILES	AF4-AF9 inh	FGF22 binding
O=C(c1ccccc1F)N1C[C@H]2[C@@H](c3ccccc31)[C@@H](CO)N2C(=O)c1ccccc1	-2.7	i
CCCC(=O)Nc1ccc2c(c1)C(=O)N(C)C[C@@H](OC)[C@H](C)CN(Cc1ccccn1)[C@H](C)CO2	-1.2	i
C[C@@H]1CN([C@@H](C)CO)C(=O)c2cc(NC(=O)NC3CCCCC3)ccc2O[C@H]1CN(C)Cc1ccc(Oc2ccccc2)cc1	-2.0	i
O=S(=O)(NCC[C@@H]1CC[C@@H](NS(=O)(=O)c2cccc(Cl)c2)[C@@H](CO)O1)c1cccc(F)c1	0.1	i
C[C@@H]1CN([C@@H](C)CO)C(=O)c2cccc(NC(=O)Nc3ccc(F)cc3)c2O[C@H]1CN(C)C(=O)Nc1ccc(F)cc1	-1.5	i
O=C(NC1CCCCC1)N[C@@H]1CC[C@@H](CCNS(=O)(=O)c2ccccc2)O[C@@H]1CO	1.1	i
CCCC#Cc1ccc([C@@H]2[C@@H](CO)N3CCCCN(CC4CCOCC4)C[C@H]23)cc1	8.7	i
O=C(C[C@@H]1C=C[C@H](NS(=O)(=O)c2ccc(F)cc2)[C@H](CO)O1)NCc1ccc(Cl)c(Cl)c1	-0.4	i
Cc1ccc(S(=O)(=O)N(C)C[C@@H]2OCCCC[C@H](C)Oc3ccc(NC(=O)NC4CCCCC4)cc3C(=O)N([C@@H](C)CO)C[C@@H]2C)cc1	-2.7	i
COc1ccc(S(=O)(=O)Nc2ccc3c(c2)C(=O)N([C@@H](C)CO)C[C@H](C)[C@H](CN(C)C(=O)c2ccncc2)OCCCC[C@H](C)O3)cc1	0.4	i
CC(C)NC(=O)Nc1ccc2c(c1)C(=O)N([C@H](C)CO)C[C@@H](C)[C@@H](CN(C)C(=O)Nc1ccccc1)OCCCC[C@@H](C)O2	-1.0	+
CO[C@@H]1CN(C)C(=O)c2ccc(NC(=O)NC3CCCCC3)cc2OC[C@@H](C)N(C)C[C@H]1C	-0.7	i
O=C(C[C@H]1CC[C@H](NC(=O)Cc2ccccn2)[C@@H](CO)O1)NCCc1ccccc1	-1.0	i
C[C@H](CO)N1C[C@H](C)[C@H](CN(C)Cc2ccncc2)Oc2ccc(NC(=O)Nc3ccc(C(F)(F)F)cc3)cc2C1=O	4.8	i
CNC(=O)C[C@@H]1CC[C@H]2[C@H](COc3ccc(NC(=O)Nc4ccc(C)cc4)cc3C(=O)N2C)O1	-0.4	i

SMILES	AF4-AF9 inh	FGF22 binding
C[C@@H](NC(=O)C[C@H]1C=C[C@@H](NC(=O)C2CCOCC2)[C@H](CO)O1)c1ccccc1	-1.3	i
CS(=O)(=O)Nc1ccc2c(c1)[C@@H]1C[C@@H](CC(=O)N3CCOCC3)O[C@H](CO)[C@@H]1O2	-15	i
CCCC#Cc1ccc2c(c1)O[C@@H](CN(C)C(=O)c1ccncc1)[C@@H](C)CN([C@H](C)CO)S2(=O)=O	-4.8	i
CCCNC(=O)N1C[C@H]2[C@@H](c3ccccc31)[C@H](CO)N2Cc1ccccc1F	-0.9	i
C/C=C/c1ccc([C@H]2[C@H]3CN(C(=O)Nc4ccccc4F)CCCCN3[C@H]2CO)cc1	-3.2	i
CCN1[C@@H]2Cn3c(ccc(-c4ccccc4)c3=O)[C@H]1[C@@H](C(=O)NCc1ccccc1)[C@@H]2CO	-1.4	i
CO[C@@H]1CN(C)C(=O)c2cc(NC(=O)Nc3cccc(F)c3)ccc2OC[C@@H](C)N(C(=O)Nc2c(C)noc2C)C[C@H]1C	2.9	i
C[C@H]1CN([C@@H](C)CO)C(=O)CCCn2nncc2CO[C@@H]1CN(C)S(=O)(=O)c1ccccc1F	-0.1	i
O=C(C1CCCCC1)N1C[C@@H]2[C@H](c3ccccc31)[C@@H](CO)N2Cc1ccccc1Cl	3.0	i
CC(C)C#Cc1ccc2c(c1)O[C@@H](CN(C)C(=O)c1cccc(F)c1)[C@H](C)CN([C@H](C)CO)S2(=O)=O	-5.6	i
COCC(=O)N[C@H]1CC[C@H](CC(=O)NCc2ccc(Cl)cc2)O[C@H]1CO	-0.2	i
N#C[C@@H]1[C@@H](c2ccc(-c3cccc(F)c3)cc2)[C@@H](CO)N1c1nc(-c2ccccc2)cs1	-2.8	i
C[C@@H]1CN([C@H](C)CO)C(=O)c2cc(NC(=O)Cc3ccccc3)ccc2O[C@@H]1CN(C)C(=O)Nc1ccc(F)cc1	-1.7	i
CO[C@H]1CN(C)C(=O)c2cc(NS(=O)(=O)c3ccc(-c4ccccc4)cc3)ccc2OC[C@H](C)NC[C@@H]1C	3.9	i
O=C(Nc1ccccc1F)N[C@@H]1CC[C@H](CCNC(=O)C2CCC2)O[C@@H]1CO	-2.8	i
C[C@@H]1CN([C@H](C)CO)C(=O)c2cc(N(C)C)ccc2O[C@@H](C)CCCCO[C@@H]1CN(C)C(=O)c1ccccc1	9.0	i
C[C@@H]1CN([C@@H](C)CO)C(=O)c2cccc(NC(=O)c3nc4ccccc4s3)c2O[C@@H]1CN(C)Cc1ccncc1	4.9	i
COc1ccc(NC(=O)N2CCCCN3[C@H](C2)[C@H](c2ccc(C4=CCCCC4)cc2)[C@@H]3CO)cc1	1.7	i

# Bioassay records: PubChem BioAssay, Broad Institute
